NPYLR7 ag: agonists of mosquito NPYLR7 receptor, primary screen, cell-based, Aedes aegypti, calcium fluorescence, mosquito biting behavior | hit rate 0.15% among 270,000 | activation, % at 10 µM | HEK293T NPYLR7/Galpha15, GCaMP6s calcium fluorescence; in the data active = activation above about 40%;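 also: 0% = vehicle and 100% = reference agonist at the receptor; some compounds past the cut are filed as inactive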
NPYLR7 ag max-min: second read-out of NPYLR7 ag, no call of its own (marks repeat the call); activation, %; measured here: Max-Min RFU normalised activation; some inactives read as strong as hits;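 span of the calcium signal over five minutes; 0% = vehicle and 100% = native peptide agonist; compound fluorescence can raise it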
Active calls of the source: *; & = joins results of further samples. The list is partial; rates above refer to the full screens.

SMILES	NPYLR7 ag	NPYLR7 ag max-min
COc1ccc(S(=O)(=O)N2CCC(Cc3ccccc3)CC2)cc1N1CCN(C(=O)c2cccc(C#N)c2)CC1	24	18
CC(=O)OC(C)(C)C(=O)N1CCc2ccccc2C1c1ccccc1Cl (stereo not drawn)	-6	-6
CNC(=O)C1CCN(C(=O)NCCc2cccs2)CC1	9	5
Cc1cc(C(C)(C)C)cc(C)c1CSc1nnc(-c2ccncc2)n1C	0	0
O=c1c2cc3c(=O)n(C4CCCCCC4)ccc3nc2ccn1-c1ncn[nH]1	3	7
Cc1ccc(C2c3cccn3CCCN2Cc2c(F)cccc2F)cc1C (stereo not drawn)	1	8
O=c1c2cc3c(=O)n(-c4ccncc4)ccc3nc2ccn1Cc1ccco1	1	4
Cc1ccc(NC(=O)Cn2nc(C(F)(F)F)c(Cl)c2C)cc1	8	8
N#CC(=C(O)CSc1ncn[nH]1)c1nc2ccccc2[nH]1	5	2
CC(=O)Nc1cnc(-c2ccc3c(c2)OCO3)cn1	1	-1
Cn1c(=O)n(CC(N)=O)c(=O)c2c1nc1n2CCCN1c1ccc(Cl)cc1	13	3
CC1(C)OCC(CNC(=O)c2cncn2-c2cccc(-c3ccccc3C(F)(F)F)c2)O1 (stereo not drawn)	5	4
C(=NNc1ccccc1)c1cnn(-c2ccccc2)c1	5	2
CN(C)c1nccc(N(Cc2ccccc2)Cc2ccccc2)c1C#N	-12	-21
O=C1OCCC1NC(=O)[C@H]1c2ccccc2C(=O)N(CCc2c[nH]c3ccccc23)[C@H]1c1ccccc1 (stereo partly drawn)	15	2
CC1(C2CC2)NC(=O)NC1=O (stereo not drawn)	10	8
O=C(C=Cc1cn(Cc2ccccc2)nn1)NC1CCCCC1	3	-1
CSc1ccc(C(=O)NCC(=O)N[C@@H]2C[C@H]3CC[C@@H]2C3)cc1	-6	-12
COc1cccc(-c2ccc3nnc(SCC(=O)N4CCCCC4)n3n2)c1	-14	-11
CCCCOc1ccc(S(=O)(=O)NCCn2nc(-c3ccncc3)ccc2=O)cc1	8	3
COc1ccc(OC)c(/C=N\NC(=O)C(C)Sc2nc3ccccc3s2)c1 (stereo not drawn)	6	16
Cc1cc(C)n(C)c(=O)c1C(=O)N1CCN(C(=O)C2CCCO2)CC1 (stereo not drawn)	10	8
O=C(Cc1c(F)cccc1F)N1CCOC(COCc2c(Cl)cccc2Cl)C1 (stereo not drawn)	5	4
O=C1NC(c2cccnc2)(C2CCNCC2)C(=O)N1CCc1ccccc1 (stereo not drawn)	1	-2
Cc1ccc(-c2nn(-c3ccccc3)cc2C(=O)N2CCCCCC2)o1	0	0
CCN(CC)S(=O)(=O)c1ccc2c(c1)nc(CCC(=O)Nc1ccc3oc(C)nc3c1)n2C	1	4
CC(C)(Oc1ccc(Br)cc1)C(=O)O	8	8
O=C(Cc1cscn1)N1CCCC(c2nc(-c3ccncc3)ncc2-c2ccccc2)C1 (stereo not drawn)	1	-1
Cc1ccc(C(=O)Nc2cc(C)nn2-c2nc(-c3ccccc3)cs2)cc1	-9	-14
c1ccc2c(c1)ccn2CCCNC1CCCNC1 (stereo not drawn)	4	2
CN(CC1CCCCO1)C(=O)CCC1(Cc2ccc3ccccc3c2)CCC(=O)N1 (stereo not drawn)	19	0
COC(=O)c1sc(N2C(=O)C(=O)C(=C(O)c3ccccc3)C2c2cccs2)nc1C (stereo not drawn)	1	1
Cc1csc(SCCn2c(N3CCCCCC3)nc3c2c(=O)[nH]c(=O)n3C)n1	-3	-5
CCc1cc2c(cc3c(=O)n(CC(=O)O)ncn32)s1	4	1
Cc1cccc(C(=O)Nc2cc(S(C)(=O)=O)ccc2C)n1	2	1
Cc1nn(-c2ccccc2)c(C)c1N1CCNCC1	-3	-1

Grouped by structure, the compounds so far containing a halogen (7)
SMILES	NPYLR7 ag	NPYLR7 ag max-min
CC(=O)OC(C)(C)C(=O)N1CCc2ccccc2C1c1ccccc1Cl (stereo not drawn)	-6	-6
Cc1ccc(C2c3cccn3CCCN2Cc2c(F)cccc2F)cc1C (stereo not drawn)	1	8
Cc1ccc(NC(=O)Cn2nc(C(F)(F)F)c(Cl)c2C)cc1	8	8
Cn1c(=O)n(CC(N)=O)c(=O)c2c1nc1n2CCCN1c1ccc(Cl)cc1	13	3
CC1(C)OCC(CNC(=O)c2cncn2-c2cccc(-c3ccccc3C(F)(F)F)c2)O1 (stereo not drawn)	5	4
O=C(Cc1c(F)cccc1F)N1CCOC(COCc2c(Cl)cccc2Cl)C1 (stereo not drawn)	5	4
CC(C)(Oc1ccc(Br)cc1)C(=O)O	8	8

Next structures follow.
SMILES	NPYLR7 ag	NPYLR7 ag max-min
Cc1cc(Br)c(NC(=O)CSCCO)cc1C	9	5
CC(C)Cn1c(=O)c2c(nc3n2CC(C)CN3c2ccc(Br)cc2)n(C)c1=O (stereo not drawn)	5	1
Cc1ccccc1C(=O)N[C@@H]1CCCCC1NC(=O)C1CCCN(C(=O)CSc2ccccc2)C1 (stereo partly drawn)	-2	2
COCCN(Cc1cccc(OS(=O)(=O)c2cccc(C(F)(F)F)c2)c1)S(=O)(=O)c1ccc(Br)cc1	11	17
COCCCN(CC(=O)N(CCc1c[nH]c2ccccc12)Cc1ccc(Cl)cc1)C(=O)c1cccs1	0	6
Cc1cc(C)c(S(=O)(=O)NC(CN2CCOCC2)c2ccccc2)c(C)c1 (stereo not drawn)	-1	5
Cc1cc(C)n(-c2nc(C)c(C)c(=O)n2CC(=O)N2CCC(C)CC2)n1	-5	0
Cc1onc(-c2ccccc2)c1C(=O)NC1CCCC1	-1	-2
CC(C)CN1CCCN(C(=O)c2ccc(Cn3cnnn3)cc2)CC1	14	7
CC(C)(C)c1cc(NC(=O)C2(C)CCN2C(=O)CC(c2ccccc2)c2ccccc2)no1 (stereo not drawn)	7	7
Cc1cc(Br)c2[nH]c(O)c(N=Nc3ccc([N+](=O)[O-])cc3[N+](=O)[O-])c2c1	0	-7
Cc1ccc(C)c(-n2nc(-c3ccc([N+](=O)[O-])cc3)cc2C(=O)N2CC3(C)CC2CC(C)(C)C3)c1 (stereo not drawn)	-3	-2
COc1cc(C(=O)NC(C)c2n[nH]c(C)n2)c2ccccc2n1 (stereo not drawn)	3	4
CCOC(=O)c1c(-c2ccc(OC)cc2)[nH]c(-c2ccc([N+](=O)[O-])cc2)c1C(=O)OCC	7	4
CN(C)CCNC(=O)c1c(O)nc2ccccn2c1=O	-1	16
CCOc1nc(-c2ccccc2F)n(-c2ccc(NC(=O)c3ccc(OC)cc3OC)cc2)n1	7	6
N#CCCN(C(=O)CN1C(=O)c2ccc([N+](=O)[O-])cc2C1=O)c1ccccc1	-6	-11
CC(C)C1CN(Cc2cccnc2)CCC(=O)N1Cc1ccc(F)cc1 (stereo not drawn)	14	5
COC(=O)Cn1c(=NC(=O)c2cc(C)no2)sc2cc(F)cc(F)c21	10	12
CC(C)C(=O)NCc1nnnn1C1CCCCC1	0	-1
COc1ccccc1C(C)(C)C(=O)n1nc(C(F)(F)F)nc1N	9&10	9&4
COc1ccc(CNC(=O)CCC2CCCN(C(=O)c3ccoc3)C2)c(OC)c1 (stereo not drawn)	4	6
CCOC(=O)C1CCCN(C(=O)c2nn(-c3ccc(Cl)cc3)c(=O)n(Cc3ccccc3F)c2=O)C1 (stereo not drawn)	2	4
O=S(=O)(c1ccc(F)c(F)c1)N1c2cccc3cccc(c23)S1(=O)=O	-2	-2
Cc1nc(-n2nc(C3CC3)cc2NC(=O)c2cc(Cl)ccc2Cl)[nH]c(=O)c1C	18	17
CC(C)C1CN(C)CCN1C(=O)c1ccc(C(=O)c2cc[nH]c2)cc1 (stereo not drawn)	3	2
Cc1nc(CN(C)C(=O)CC2C(=O)NCCN2Cc2ccc(F)cc2)cs1 (stereo not drawn)	3	0
Cc1ccc(-c2nnn(Cc3cc(C)on3)n2)cc1	2	23
CC(=O)Nc1ccc(NC=C2C(=O)OC3(CCCCC3)OC2=O)cc1	4	4
CCN1C(=O)C(CC(=O)NC)SC1=Nc1cc(Cl)c(O)c(Cl)c1 (stereo not drawn)	-4	-9
O=c1[nH]c2ccccc2c(=O)n1NC(=S)NC1CC2CCC1C2 (stereo not drawn)	4	3
CC(C)(Oc1ccc(Cl)cc1)C(=O)Nc1ccc(-c2onc3c2CCCC3)cc1	5	5
CC(NC(=O)c1ccc(Cl)c(S(=O)(=O)N2CCCC2)c1)c1ccco1 (stereo not drawn)	2	7
CCc1nc2ccc(C(=O)N3CCN(c4ccccc4)CC3)cn2c1N(C)Cc1nccs1	-8	-9
Cc1ccc(N2CCCC(NCc3c(C)nn(C)c3Cl)C2)nn1 (stereo not drawn)	1	0
COc1ccc(CCC(=O)N2CCc3c(nc(-c4ccccc4)[nH]c3=O)C2)cc1	3	2
Brc1cc2c(cc1CSc1nnc(C3CC3)n1C1CC1)OCCO2	1	7
O=C(NNC(=O)C1CCCN1C(=O)c1cccs1)c1ccccc1 (stereo not drawn)	1	4
Cc1noc(C)c1S(=O)(=O)N1CCC(CCC(=O)Nc2ccccc2)CC1	8	8
Cc1[nH]c2ccc(F)cc2c1CC(=O)Nc1ccccn1	22	9
O=C1C(Oc2ccc(F)cc2)CCN1C1CCOCC1 (stereo not drawn)	3	-10
O=C1CC2(CCN(C(=O)c3cc(C(F)(F)F)ccc3Cl)CC2)CN1	9	4
COc1ccc(C(=O)N2CCN(c3cc(Cl)nc(SCC(=O)NCCc4ccccn4)n3)CC2C)cc1 (stereo not drawn)	-5	3
COc1cccc(OCCn2c(C3CC(=O)N(Cc4ccccc4)C3)nc3ccccc32)c1 (stereo not drawn)	-1	-3
Cc1ccsc1CN(C)C(=O)c1cc(S(N)(=O)=O)c(C)o1	4	1
O=C(Nc1ccncc1)Nc1c[nH]c2ccccc12	2	-2
CCOc1cccc2c1OC[C@@H]1CN(CC)C(=O)CCN(C(=O)C3CC3)[C@H]21	-3	5
Cc1ccccc1C1c2ccsc2CCN1C(=O)CN(Cc1ccco1)C(=O)C(C)(C)CCl (stereo not drawn)	23	25

Filtered by structure: the entries above with a nitro group on carbon (4)
SMILES	NPYLR7 ag	NPYLR7 ag max-min
Cc1cc(Br)c2[nH]c(O)c(N=Nc3ccc([N+](=O)[O-])cc3[N+](=O)[O-])c2c1	0	-7
Cc1ccc(C)c(-n2nc(-c3ccc([N+](=O)[O-])cc3)cc2C(=O)N2CC3(C)CC2CC(C)(C)C3)c1 (stereo not drawn)	-3	-2
CCOC(=O)c1c(-c2ccc(OC)cc2)[nH]c(-c2ccc([N+](=O)[O-])cc2)c1C(=O)OCC	7	4
N#CCCN(C(=O)CN1C(=O)c2ccc([N+](=O)[O-])cc2C1=O)c1ccccc1	-6	-11

Gathered by group, those above with a tert-butyl group
SMILES	NPYLR7 ag	NPYLR7 ag max-min
Cc1cc(C(C)(C)C)cc(C)c1CSc1nnc(-c2ccncc2)n1C	0	0
CC(C)(C)c1cc(NC(=O)C2(C)CCN2C(=O)CC(c2ccccc2)c2ccccc2)no1 (stereo not drawn)	7	7

Continued.
SMILES	NPYLR7 ag	NPYLR7 ag max-min
C=CCn1cc(CNC(CC)c2ccnn2C)c(C)n1 (stereo not drawn)	4	24
O=C1N=c2ccccc2=C1c1sc(=S)n(NC(=O)c2ccc([N+](=O)[O-])cc2)c1O	-4	-10
Cc1oc(-c2ccc(Cl)cc2)cc1CO	-7	-7
CCC(c1cccnc1)N(C)Cc1ccc(S(C)(=O)=O)cc1 (stereo not drawn)	4	2
O=S(=O)(c1ccc2c(c1)OCCCO2)N1CCc2ccccc2C1	0	10
FC(F)Oc1ccccc1C=NNc1nc(-c2ccncc2)nc2ccccc12	-4	-10
NC(=O)NCC(=O)N1CCOC(Cc2ccccc2Cl)C1 (stereo not drawn)	4	2
CCOC(=O)c1ccc2c(c1)nc(SCc1cc(C(F)(F)F)ccc1F)n2Cc1ccccn1	0	-5
COc1ccc(-c2cnc3ncnn3c2N2CCN(C(=O)NC3CCCCC3)CC2)cc1OC	17	6
N#Cc1ccc(S(=O)(=O)NC(=O)c2ccc3c(c2)CCO3)cc1	-1&0	-1&0
Cc1ccc(Cl)c2sc(=NC(=O)C3CC3)n(C)c12	1	1
Cc1cc(Nc2nc(N[C@@H](C)c3ccc(F)cc3)c(C#N)cc2F)n[nH]1	-5	-12
COc1cc(/C=C(/C#N)c2nnc3n2CCCCC3)cc(OC)c1O	-3	-5
CS(=O)(=O)c1cc([N+](=O)[O-])c(Sc2nc3ccccc3[nH]2)c([N+](=O)[O-])c1	1	-1
Cc1ccsc1[C@@H]1CCN(C(=O)COc2ccc3c(c2)OCO3)C[C@H]1O	18	8
Cc1[nH]c(=O)c(C#N)c(C)c1CCC(=O)Nc1ccccc1SC1CCCC1	0	0
CCNC(=O)C1(C)CCN1C(=O)C/C=C/c1ccccc1 (stereo not drawn)	18	19
CC(C)N(C)c1ccc(N)cc1F	13	9
N#Cc1ccc(NC(=O)NC2CC2c2c(F)cccc2F)cc1 (stereo not drawn)	-21&0	-21&-2
CCCCc1nnc2sc(/C=C/c3ccccc3)nn12	6	7
Cc1ccc(C)c(-c2nnc(NC(=O)/C=C/c3cccs3)o2)c1	12	6
CCn1c(C2CCN(CC3CCN(CCOC)CC3)CC2)nn(C)c1=O	5	4
CC(C)c1cc(Oc2cccc(F)c2)nc(SCc2cccc(C#N)c2)n1	3	9
Cc1ccc(N2CCn3c2nc2c3c(=O)n(CCCO)c(=O)n2C)cc1	7	2
CCn1nnc2c(SCc3ccc(C(=O)OC)o3)ncnc21	2	21
CCc1nc2c(OCCOC)cccn2c1N(CCOC)C(C)=O	-13	4
NC(=O)C1CCCCN1C(=O)CSc1nc2ccc(Cl)cc2[nH]1 (stereo not drawn)	12	4
COc1ccc(-c2nnc(SCc3ccc(Cl)cc3)n2-c2ccccc2C)cc1OC	-1	2
CC(C)CNC(=O)C(C)(C)n1cc(-c2ccc3c(c2)OCCO3)cn1	2	1
OC(COCc1ccccc1)CN(Cc1ccc(F)cc1)CC1CCCO1 (stereo not drawn)	48	38

Source: PubChem (Fisher Drug Discovery Resource Center)
